VDR inh: vitamin D3 receptor (human) inhibition | AID 504847 | Potency, µM, without a hit: max response, negative = inhibition, hits mostly inhibitors | P11473 | hit rate 0.93% among 400,000 | VDR-SRC2-3 peptide fluorescence polarization, 2 h; active = well fitted inhibition curve with a large enough effect; inconclusive = small, poorly fitted or top-dose-only effect, or another doubt; inactive = no such curve, though single readings can be large or run the other way; also: series mostly up to about 120 µM
Target sequence (P11473 whole entry, looked up): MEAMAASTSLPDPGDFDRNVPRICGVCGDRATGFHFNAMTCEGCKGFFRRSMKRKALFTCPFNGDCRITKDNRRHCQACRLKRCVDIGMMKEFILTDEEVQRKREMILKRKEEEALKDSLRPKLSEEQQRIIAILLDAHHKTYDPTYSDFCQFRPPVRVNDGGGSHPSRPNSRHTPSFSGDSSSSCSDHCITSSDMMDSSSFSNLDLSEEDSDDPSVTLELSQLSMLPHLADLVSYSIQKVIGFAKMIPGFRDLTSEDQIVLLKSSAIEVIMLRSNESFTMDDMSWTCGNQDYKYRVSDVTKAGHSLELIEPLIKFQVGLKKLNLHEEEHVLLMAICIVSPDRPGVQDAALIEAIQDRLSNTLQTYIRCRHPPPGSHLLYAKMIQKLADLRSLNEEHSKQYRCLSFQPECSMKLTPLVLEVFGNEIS
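Reagent solutions, kept cold and dark, are dispensed first; compounds are then pinned in at 23 nl, plates briefly spun, and incubated 2 h at ambient temperature. Inhibition of VDR–SRC2-3 peptide binding is read by fluorescence polarization.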
Numbers without * were called inactive; ? = inconclusive; & = joins results of further samples; [ ] = another dose, or the depositor's remark. % is scaled to controls: 0 for no effect and ±100 for the full control effect; potency is read from the fitted curve at half-maximal effect.

VDR inh | structure
? | CCOC(=O)C(/C(C)=N/NC(=O)C1CC1c1ccccc1)C(C)C (stereo not drawn)
0% | Cc1cc(C)cc(NC(=O)c2ccc(S(=O)(=O)C(F)F)cc2)c1
-4% | CNC(=O)C1CCC(Cn2c(=O)c3sccc3n(CC(=O)NCc3ccc(OC)cc3)c2=O)CC1 (stereo not drawn)
9% | O=C(COC(=O)COc1ccccc1[N+](=O)[O-])NC1CCCC1
5% | Cc1ccc(NC(=O)c2cnn3c(C(F)F)cc(-c4ccccc4)nc23)cc1F
8% | CC1CC(C)CN(C(=O)C(C)N2CCN(S(=O)(=O)c3cccs3)CC2)C1 (stereo not drawn)
-24% | C/C(=N\NC(=O)c1ccc(OC2CCCC2)cc1)c1ccc(C)s1
-17% | CCOc1ccccc1/C=N/Nc1cc(C)nc2ccc(C)cc12
14% | Cc1ccc(CC2C(=O)N(c3ccc(C)cc3)C(=O)C2C)cc1 (stereo not drawn)
-14% | COc1ccc(-n2nc(C(=O)N3CCN(c4cccc(C)c4)C(C)C3)c3c4ccccc4n(C)c3c2=O)cc1 (stereo not drawn)
7% | COc1cccc(CN2CC(C(=O)NCCn3ccc(C)n3)CCC2=O)c1 (stereo not drawn)
14% | CCOc1cccc(-c2nnc3sc(-c4ccco4)nn23)c1
-18% | Cc1ccc(CNC(=O)c2ccc3c(c2)NC(=O)CS3)cc1
-3% | Cc1cccc(C)c1NC(=O)c1ccc(-c2ccc(Cl)cc2Cl)o1
8% | CC(=O)c1cn(CC(=O)Nc2cccc(C)c2C)c2ccccc12
-4% | O=C(c1ccc(Br)o1)N1CCN(C23CC4CC(CC(C4)C2)C3)CC1
-2% | COc1ccc(S(=O)(=O)c2ccccc2)cc1NC(=O)c1c(F)cccc1F
5% | CN(C1=C(N2CCCCC2)C(=O)c2ccccc2C1=O)c1ccccc1
-10% | O=C(CCN1C(=O)/C(=C/C=C/c2ccccc2)SC1=S)Nc1cccnc1
11% | Cc1ccc(NC(=O)COc2ccccc2C(N)=O)cc1S(=O)(=O)N1CCCCCC1
-5% | COc1ccc(OC)c(N=c2oc3cc(O)ccc3cc2C(N)=O)c1
35%[activator] | CCOC(=O)Cc1csc(NC(=O)c2cc(C)cc(C)c2)n1
-6% | COC(=O)C1=C(C)N(CCCC(=O)O)C(=O)NC1c1ccc(C#N)cc1 (stereo not drawn)
17% | O=C(NCCc1ccccc1)C1CCN(c2ncnc3c2nc2n3CCCCC2)CC1
-9% | O=C(NC1CCCC1)C(c1cccs1)N(C(=O)c1ccno1)c1ccccc1 (stereo not drawn)
-4% | NC(=O)Cc1ccc(C(=O)c2ccc(Cl)cc2Cl)s1
10% | CCn1nc(-c2ccccc2)c(-c2ccccc2)c(C(=O)Nc2ccccc2C(N)=O)c1=O
-29% | Cc1cccc(-c2nsc(SCC(=O)Nc3nccs3)n2)c1
-16% | CC(CCc1ccccc1)C(=O)NO (stereo not drawn)
-4% | Cc1ccc(C(OC(=O)c2ccco2)C(=O)NC(C)(C)C)cc1 (stereo not drawn)
0% | O=C(NCc1ccc2c(c1)OCO2)C1CCN(S(=O)(=O)c2ccc(Br)s2)CC1
-1% | CC(C)(C)OC(=O)C1C(=O)CC(C)(O)C(C(=O)OC(C)(C)C)C1c1cccnc1 (stereo not drawn)
-2% | CC1(C)CC(=O)C(C=NCCCO)=C(O)C1
19% | CCOC(=O)N1CCc2c(sc3c2c(=O)n(-c2ccc(Cl)cc2)c(=O)n3CC(=O)Nc2ccccc2)C1
-4% | Cc1csc(=O)n1CC(=O)OCC(=O)Nc1ccccc1C(C)C
-8% | CSC(=Nc1ccccc1)Nc1ccccc1
-11% | CCCNC(=S)Nc1ccc2nc(-c3ccccn3)c(-c3ccccn3)nc2c1
1% | Cc1cnc(CNc2nc(-c3ccccc3C)nc3ccccc23)cn1
-3% | CCOC(=O)C1CC(C)=C(C)CC1C(=O)O (stereo not drawn)
15% | N=c1n(CCO)c2ccccc2n1CCOc1ccc(F)cc1
0% | CC1(C)CC[C@]2(C(=O)O)CC[C@]3(CO)C(=CCC4[C@@]5(C)C[C@H](O)[C@H](O)[C@@](C)(C(=O)O)C5CC[C@]43C)[C@@H]2C1 (stereo partly drawn)
3% | Cc1nc(NC(=O)c2ccccc2)sc1C
? | Cc1ccc(N(C(C)C(=O)O)S(=O)(=O)c2cccnc2)cc1 (stereo not drawn)
-2% | CCOC(=O)c1cc(-c2ccccc2)n(-c2cccc(C(=O)Nc3ccc(OC)cc3)c2)c1C
4% | N/C(=N\OC(=O)C(c1ccccc1)c1ccccc1)c1cccnc1
-9% | COc1ccc(Br)cc1/C=N/Nc1ccc(Cl)c(C(=O)O)c1
? | O=C(O)c1cnc(-c2ccccc2)nc1Sc1ccc(Cl)cc1Cl
-2% | COC(=O)Nc1ccc(S(=O)(=O)Nc2cccc3ccccc23)cc1

Fetched one by one from above (three):
VDR inh | structure
-9% | COc1ccc(Br)cc1/C=N/Nc1ccc(Cl)c(C(=O)O)c1
15% | N=c1n(CCO)c2ccccc2n1CCOc1ccc(F)cc1
? | CCOC(=O)C(/C(C)=N/NC(=O)C1CC1c1ccccc1)C(C)C (stereo not drawn)

(cont.)
VDR inh | structure
2% | CC(=O)c1ccc(NC(=O)CSc2nc(-c3ccccc3F)nc3c2c(=O)n(C)c(=O)n3C)cc1
18% | COc1cccc(C(C(=O)NC2CCCCC2)N(C(=O)c2cccs2)c2ccc3c(c2)OCO3)c1 (stereo not drawn)
6% | Cc1[nH]c2ccccc2c1C(=O)C(=O)NCc1cccs1
-1% | Cc1cc(SCC(=O)Nc2cccnc2Cl)nc2ccccc12
9% | CC(=O)c1ccc(NC(=S)N2CC(C)CC(C)C2)cc1 (stereo not drawn)
-3% | Cn1c(N2CCOCC2)nc2c1c(=O)n(Cc1ccc(Cl)c(Cl)c1)c(=O)n2C
-3% | COCCNc1oc(-c2ccc(C)cc2)nc1C#N
-34% | CCOc1cccc(C(=O)Nc2ccc3oc(-c4ccncc4)nc3c2)c1
-9% | CCc1nnc(NS(=O)(=O)c2ccc(NC(=S)NC(=O)c3ccc(OC)cc3)cc2)s1
-1% | O=C(CN(C(=O)Cn1nnc(-c2cccs2)n1)c1cnc2ccccc2c1)NCC1CCCO1 (stereo not drawn)
18% | CC1(C)NC(=O)N(CC(O)CN(c2ccccc2)S(=O)(=O)c2ccc([N+](=O)[O-])cc2)C1=O (stereo not drawn)
1% | O=C(CCOc1ccccc1)Nc1cccc(S(=O)(=O)Nc2ccccc2Cl)c1
7% | C[C@H](CO)N1C[C@H](C)[C@@H](CN(C)C(=O)Nc2ccc3c(c2)OCO3)Oc2ccc(NS(=O)(=O)c3ccc(F)cc3)cc2C1=O
6% | c1ccc(OCCSc2nnc3sc4ccccc4n23)cc1
-13% | Cc1ccc(CNc2nc(-c3cccs3)nc3ccccc23)cc1
-5% | CC(=O)c1cccc(N(CC(=O)O)S(C)(=O)=O)c1
-12% | O=C(CSCc1ccc([N+](=O)[O-])cc1)NCCSCc1ccccc1
5% | O=C(c1ccc([N+](=O)[O-])cc1)n1nc(-c2ccccc2)nc1NCc1ccc(F)cc1
-15% | CCOC(=O)c1sc2nc(C)c([N+](=O)[O-])c(COC)c2c1N
? | CC(=O)O[C@@]1(C(C)=O)CCC2C3C=C(Cl)C4=CC(=O)CC[C@]4(C)C3CC[C@]21C (stereo partly drawn)
4% | COc1ccc(Cl)cc1NC(=O)CN(C)CC(=O)Nc1c(C)n(C)n(-c2ccccc2)c1=O
8% | O=C1CSC(=NC(=O)c2ccccc2)N1
1% | COc1ccc(NC(=O)c2cnc3sc(N4CCOCC4)nn3c2=O)c(OC)c1
-8% | Cc1ccc(S(=O)(=O)c2nc(-c3ccccc3)oc2SCC(=O)NC2CCCCC2)cc1
-2% | Fc1ccc(Nc2nnc(C(F)(F)F)s2)cc1
14% | COc1ccc(CCN(C)C(=O)C2CCCN(C3CCN(Cc4ccccc4)CC3)C2)cc1OC (stereo not drawn)
22% | COc1cc(C=O)ccc1OCc1ccccc1Br
-7% | Cn1c(-c2ccc(F)cc2)cnc1NCc1ccc(F)cc1F
-27%&-3% | COc1cc(OC)c2ccc(=O)oc2c1C(CCN1CCCC(C)C1)c1ccc2c(c1)OCO2 (stereo not drawn)
-12% | CCNC(=O)C(=O)NCC1OCCCN1S(=O)(=O)c1cccs1 (stereo not drawn)
1% | Cc1cc(Nc2cc(C)on2)n2ncnc2n1
20% | FC(F)(F)c1cnc(-c2cnc(-c3ccccn3)nc2)c(Cl)c1
3% | CCC(=O)NC(Nc1sc2c(c1C(=O)OC)CCN(C)C2)(C(F)(F)F)C(F)(F)F
6% | O=C(Nc1cccc(Cl)c1)Nc1ccon1
8% | COc1ccc(NC(=O)CCc2nnc3n(CC(C)C)c(=O)c4ccccc4n23)cc1
8% | Cc1ccc(Cl)cc1N(C)C(=O)C1CCCN(c2ncnc3onc(-c4ccc(F)cc4)c23)C1 (stereo not drawn)
-9% | CCc1ccc(C(O)(CC)C(CN2CCOCC2)c2ccccc2)cc1 (stereo not drawn)
-15% | Cc1ccccc1N=C/C=C1/C=C(c2ccccc2)OC(C)(C)O1
-5% | COc1cc(/C=C/C(=O)OC2CC3CCC2(C)C3(C)C)ccc1O (stereo not drawn)
7% | OCCC1CN(Cc2nc3c(s2)CCCC3)CCN1Cc1ccsc1 (stereo not drawn)
14% | O=C(NC1CCCCC1)c1ccc2c(c1)N(Cc1cccc(Cl)c1)C(=O)c1ccccc1S2=O (stereo not drawn)
1% | CCOC(=O)/C=c1\s/c(=C\c2ccc3c(c2)OCCO3)c(=O)n1CC(=O)NCC1CCCO1 (stereo not drawn)
-4% | Fc1ccc(-c2cnn3c(-c4cccs4)ccnc23)cc1
-7% | CCOC(=O)N1CCN(Cc2nc3c(c(=O)n(C)c(=O)n3C)n2Cc2ccc(F)cc2)CC1
7% | O=C(COc1ccc(Cl)cc1)NCCS(=O)(=O)N1CCN(c2ccc(F)cc2)CC1
6% | CC(C)(O)C(=O)N=Nc1c(O)[nH]c2ccccc12
1% | CCCN(CCC)S(=O)(=O)c1ccc(C(=O)N2CCn3c4c(c5cc(C)ccc53)CCCC42)cc1 (stereo not drawn)
14% | Cc1ccc(Cl)cc1N1CCN(C(=O)C2CCC(=O)N(C3CCCCCC3)C2)CC1 (stereo not drawn)
10% | Cc1c(C(=O)NCCN(C)C)oc2ccc(S(=O)(=O)N3CCC4(CC3)OCCO4)cc12
-21% | COc1ccc(CN2C(=NC(=O)C3CC3)SC3CS(=O)(=O)CC32)cc1 (stereo not drawn)
-7% | CC(=O)Nc1ccc(C(=O)OCC(=O)N(c2ccccc2)C2CCS(=O)(=O)C2)cc1 (stereo not drawn)
2% | CC(C)C(=O)Nc1ccccc1C(=O)OCC(=O)c1ccc2c(c1)OCCO2
17% | O=C(NC12CC3CC(CC(C3)C1)C2)C12CC3CC(C1)CC(n1cnc(Cl)n1)(C3)C2
7% | Cc1nc2ccc(C(C(F)(F)F)(C(F)(F)F)C(F)(F)F)cc2[nH]1
-6% | Cc1ccccc1C(=O)NCCNC(=O)c1ccccn1
-9% | CS(=O)(=O)c1nc(S(=O)(=O)c2ccc(Cl)cc2)c(NCCCN2CCOCC2)s1
11% | CC(=O)c1ccc(OCCCC(=O)NC2CCCCC2C)cc1 (stereo not drawn)
-5% | CCC(=O)N1CCc2cc(S(=O)(=O)NC(CC(C)C)C(=O)NCc3ccc(C)cc3)ccc21 (stereo not drawn)
-12% | COc1ccc(-n2cnnc2SCC(=O)NC2CCCCC2)cc1
-13% | COc1ccc(C2CC(c3ccccc3)=NN2C(=O)c2ccc(F)cc2)cc1 (stereo not drawn)

(listing goes on)
VDR inh | structure
-4% | CC[n+]1c(/C=C/Nc2ccccc2)oc2ccccc21
-7% | CC1CCCC(NC(=O)CN2C(=O)NC(C)(c3cc(F)ccc3F)C2=O)C1C (stereo not drawn)
-5% | O=C(O)c1ccc(COc2ccc3ccccc3c2/C=C2/NC(=O)N(Cc3ccc(F)cc3)C2=O)cc1
3% | Cc1cc(NC(=O)CCC(=O)N(CCC(C)C)C(C(=O)NC2CCCC2)c2ccccc2C)no1 (stereo not drawn)
-9% | COC(=O)C1C(O)=C(C(C)=Nc2cccc3ccccc23)C(=O)CC1(C)C (stereo not drawn)
15% | C(=N\Nc1nc(N2CCCCC2)nc(N2CCCCC2)n1)/c1c[nH]c2ccccc12
-20% | CCN(CC)CC(=O)NCC1(c2ccccc2)CCOCC1

In the list so far, these contain two or more sulfur atoms:
VDR inh | structure
8% | CC1CC(C)CN(C(=O)C(C)N2CCN(S(=O)(=O)c3cccs3)CC2)C1 (stereo not drawn)
-10% | O=C(CCN1C(=O)/C(=C/C=C/c2ccccc2)SC1=S)Nc1cccnc1
-29% | Cc1cccc(-c2nsc(SCC(=O)Nc3nccs3)n2)c1
0% | O=C(NCc1ccc2c(c1)OCO2)C1CCN(S(=O)(=O)c2ccc(Br)s2)CC1
-9% | CCc1nnc(NS(=O)(=O)c2ccc(NC(=S)NC(=O)c3ccc(OC)cc3)cc2)s1
6% | c1ccc(OCCSc2nnc3sc4ccccc4n23)cc1
-12% | O=C(CSCc1ccc([N+](=O)[O-])cc1)NCCSCc1ccccc1
-8% | Cc1ccc(S(=O)(=O)c2nc(-c3ccccc3)oc2SCC(=O)NC2CCCCC2)cc1
-12% | CCNC(=O)C(=O)NCC1OCCCN1S(=O)(=O)c1cccs1 (stereo not drawn)
7% | OCCC1CN(Cc2nc3c(s2)CCCC3)CCN1Cc1ccsc1 (stereo not drawn)
-21% | COc1ccc(CN2C(=NC(=O)C3CC3)SC3CS(=O)(=O)CC32)cc1 (stereo not drawn)
-9% | CS(=O)(=O)c1nc(S(=O)(=O)c2ccc(Cl)cc2)c(NCCCN2CCOCC2)s1

This is a subset (hit frequency here may not be typical).
